NPYLR7 ag = mosquito NPYLR7 agonism | 270,000 compounds, 0.15% hits | activation, % at 10 µM | HEK293T NPYLR7/Galpha15, GCaMP6s calcium fluorescence; in the data active = activation above about 40%;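 note: 0% = vehicle and 100% = reference agonist at the receptor; some compounds past the cut are filed as inactive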
NPYLR7 ag max-min = second read-out of NPYLR7 ag, no call of its own (marks repeat the call); activation, %; measured here: Max-Min RFU normalised activation; some inactives read as strong as hits;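 span of the calcium signal over five minutes; 0% = vehicle and 100% = native peptide agonist; compound fluorescence can raise it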
Numbers without * were called inactive; & = joins results of further samples.

The opening 7 records as a preview:
SMILES	NPYLR7 ag	NPYLR7 ag max-min
Cc1nc2ncc3c(=O)n(-c4cccc(Cl)c4)ccc3n2n1	2.8	7.2
O=C(NCCC1CCCO1)c1occc1-c1ccccc1 (stereo not given)	-1.6	-2.9
COc1ccc(Cl)c2sc(N(Cc3cccnc3)C(=O)CS(=O)(=O)c3ccccc3)nc12	22.9	15.4
Cc1cc(SC2CCOC2=O)nc(C)n1 (stereo not given)	-12.9	-11.0
CN(CCCn1cccn1)Cc1cc2c(cc1Cl)OCO2	-0.1	1.2
Cc1c(C(=O)N2CCN(C(=O)Nc3ccccc3F)CC2)cc(-c2ccccc2)n1-c1ccccc1Cl	-9.0	-0.4
O=C(CSc1n[nH]c(-c2cccs2)n1)NC(=O)NC12CC3CC(CC(C3)C1)C2	-1.6	2.1

All compounds of this part, from the start:
SMILES	NPYLR7 ag	NPYLR7 ag max-min
Cc1nc2ncc3c(=O)n(-c4cccc(Cl)c4)ccc3n2n1	2.8	7.2
O=C(NCCC1CCCO1)c1occc1-c1ccccc1 (stereo not given)	-1.6	-2.9
COc1ccc(Cl)c2sc(N(Cc3cccnc3)C(=O)CS(=O)(=O)c3ccccc3)nc12	22.9	15.4
Cc1cc(SC2CCOC2=O)nc(C)n1 (stereo not given)	-12.9	-11.0
CN(CCCn1cccn1)Cc1cc2c(cc1Cl)OCO2	-0.1	1.2
Cc1c(C(=O)N2CCN(C(=O)Nc3ccccc3F)CC2)cc(-c2ccccc2)n1-c1ccccc1Cl	-9.0	-0.4
O=C(CSc1n[nH]c(-c2cccs2)n1)NC(=O)NC12CC3CC(CC(C3)C1)C2	-1.6	2.1
Cn1cc(C(=O)NCc2cnc3c(c2)CCC3)ccc1=O	5.2	2.0
COc1ccc2[nH]c3c(c2c1)CCN(C(=O)c1cc(Cl)cc(Cl)c1)C3c1ccc(-c2ccccc2C(F)(F)F)o1 (stereo not given)	-4.7	-7.2
O=C(Nc1c[nH]c2ccccc12)NC1CCCN(C2CCCCCC2)C1 (stereo not given)	5.7	5.8
Cc1ccc(C(C)C)cc1S(=O)(=O)Nc1ccccn1	9.6	6.4
O=C(c1ccc2oc(-c3cccc(F)c3)nc2c1)N1CCC(O)(c2ccccc2)CC1	1.7	0.1
Cc1cccc2ncc(C(=O)N3Cc4cnc(CC(C)C)nc4C3)c(=O)n12	14.4	11.9
Cc1cc(NC(=O)CSc2nc3scc(-c4ccccc4)c3c(=O)n2-c2ccccc2)no1	-0.5	-4.5
N#Cc1cccc(N=c2oc3ccc(Br)cc3cc2-c2nc3ccccc3[nH]2)c1	-4.3	-8.4
Cc1cc(N2CCCCC2)nc(NCCNC(=O)Nc2ccc3c(c2)OCO3)n1	-1.6	-3.1
CC(c1cccs1)N(C)Cc1ccc(C(N)=O)cc1 (stereo not given)	2.2	1.9
CCc1nc2c(OCCOc3ccc(F)cc3)cccn2c1N(C=O)Cc1ccccc1	-0.3	-3.6
COc1cccc(N2CC(CN)OC2=O)c1 (stereo not given)	-4.2	-5.1
Cc1ccn2c(=O)cc(C)nc2c1	0.6	7.8
CCOc1ccc(S(=O)(=O)NCCc2sc3nc(-c4ccc(C)cc4)nn3c2C)cc1	1.2	-0.5
C=CCN(CC=C)C(=O)CN1CCCC1c1nonc1C (stereo not given)	2.3	-2.0
O=S1(=O)CCN2C(=N1)Sc1cc(SC(F)F)ccc12	1.9	2.5
CCCCn1c(SC(C)c2nc(C(C)C)no2)nc2ccccc2c1=O (stereo not given)	0.8	0.3
O=C1CC2(CCN(C(=O)c3ccccc3C3CCNC3)CC2)CN1 (stereo not given)	-2.0	-12.6
O=C(Cc1cccs1)Nc1cccc(C2SCC(=O)N2c2ccc3c(c2)OCO3)c1 (stereo not given)	14.6	10.6
CCCCn1c(CNC(=O)C23CC4CC(CC(C4)C2)C3)nnc1SC	-4.3	-7.4
Cc1nc2sccn2c1C(=O)N1CCCCC1CCc1ccccn1 (stereo not given)	8.8	4.2
O=C(CCNC(=O)c1ccco1)Nc1cc(Cl)ccc1N1CCCCC1	-3.8&6.4	-5.7&15.0
COCCn1c(=O)c2c(nc3n2CCN3c2ccccc2)n(C)c1=O	17.9	8.4
O=C(c1cc(-c2ccc(F)cc2)nn1-c1ccccc1)N1CCN(c2cccc(C(F)(F)F)c2)CC1	-2.5	-0.3
COc1ccc(-c2nnc(SCC(=O)N/N=C\C=C\c3ccccc3)n2-c2ccccc2)cc1OC	-6.2	-10.7
COCC(=O)N(Cc1cccc(OS(=O)(=O)C(C)C)c1)CC(C)C	-4.6	-4.2
CNC(=S)NC(=O)c1ccco1	4.3	4.6
COc1ccccc1N1CCN(c2ccc(NC(=O)Nc3c(C)cccc3C)cc2C(=O)NC2CCCCC2)CC1	17.4	10.9
CC1(c2ccccn2)NC(=O)N(Cc2nc3cc(F)ccc3o2)C1=O (stereo not given)	0.6	-17.9
COc1cc(CN2C(=O)C(=O)c3cc(C)ccc32)ccc1OC(C)C	-4.5	1.3
Cc1nonc1C1CCCN1C(=O)c1cc(CC(C)C)on1 (stereo not given)	-2.2	-3.4
CCn1c(C)nnc1SCCNC1CCC2(CCNCC2)CC1	11.8	5.0
O=C(Cc1cc(-c2cc3ccccc3o2)on1)Nc1cccnc1	2.4	5.3

Compound profiles (already shown). Order of values: NPYLR7 ag	NPYLR7 ag max-min
Profile of O=C(CCNC(=O)c1ccco1)Nc1cc(Cl)ccc1N1CCCCC1 = -3.8&6.4	-5.7&15.0
Profile of CCn1c(C)nnc1SCCNC1CCC2(CCNCC2)CC1 = 11.8	5.0

Later entries.
SMILES	NPYLR7 ag	NPYLR7 ag max-min
CCCc1c(C(=O)Nc2ccc(-c3onc4c3CCc3ccccc3-4)cc2)cnn1-c1ccccc1	1.8	-1.8
Cc1cc(C)n(-c2ccc(F)cc2CN2CCN(C)C(CCO)C2)n1 (stereo not given)	7.1	8.5
O=C(CCc1ccccc1)Nc1nc(-c2cccs2)cs1	17.6	9.2
CN(C)c1oc(-c2ccccc2)nc1C#N	8.4	7.0
CC(NC(=O)c1ccoc1)C(=O)Nc1cc(C(F)(F)F)ccc1O (stereo not given)	0.7	-0.2
COc1ccc2nc(-c3ccc(F)cc3C(F)(F)F)n(Cc3ccccc3)c(=O)c2c1	4.7	2.5
COCCn1cnc(-c2ccccc2)c1-c1cccc(Cn2cccn2)c1	-2.3	-3.2
CCOC(=O)c1nn(-c2ccc(F)cc2)c(=O)c2c(NC(=O)C3CC3)scc12	2.1	0.3
COC(=O)c1ccccc1NCC(=O)NCCc1ccccc1	8.7	7.2
CC(C)c1ccc(-n2nnnc2SCC(=O)NCc2ccco2)cc1	3.8	0.1
CCOC(=O)c1nc(CN2CCC(NC(=O)c3cnn(C)c3)CC2)cs1	-1.5	-1.5
Cc1ccc(S(=O)(=O)CC2CSc3nc4ccccc4n32)cc1 (stereo not given)	4.6	1.6
COc1ccc(CCOC(=O)C2CCCCN2C(=O)c2c(Cl)ccc(C)c2F)cc1OC (stereo not given)	-1.8	-5.2
CSc1ccc2c(c1)sc(=NC(=O)c1ccn(C)n1)n2C	2.0	8.1
Cc1nc2n(n1)C(=O)C(C(c1ccccc1)N1CCC(O)CC1)S2 (stereo not given)	0.6	-4.5
FC(F)(F)c1nnc2sc(/C=C/c3ccccc3)nn12	0.7	-1.2
COc1ccc(-c2noc(COc3ccc(C)cc3OC)n2)cc1	3.3	-0.1
COC(=O)c1ccc(CSc2nnc(-c3cc(OC)cc(OC)c3)n2C2CCCCC2)o1	-0.7	0.6
Cc1noc(C)c1CN(C)S(=O)(=O)c1ccc2ncccc2c1	1.3	0.6
COc1cccc(Nc2nc(N)c([N+](=O)[O-])c(N3CCCCC3)n2)c1	0.6	-1.1
CC(=O)c1c(C(C)=O)c(C)n(Cc2ccco2)c1C	6.6	3.3
COc1ccc2[nH]c(=O)c(CN(C)CCc3ccccn3)cc2c1	0.0	-1.6
Cc1ncsc1CCC(=O)NC1CC(=O)N(Cc2cccc(F)c2)C1 (stereo not given)	19.1	7.6
COc1cc(NS(=O)(=O)c2ccc3c(c2)CCN3C=O)cc(OC)c1OC	4.5	3.0
O=C(Cc1cc(-c2ccc(F)cc2)on1)NCCC1=CCCCC1	11.5	12.6
O=C(Nc1nccs1)c1csc(-c2cc3ccccc3[nH]2)n1	1.6	-1.3
N#Cc1c(N2CCOCC2)nn2cc([N+](=O)[O-])cnc12	12.1	9.6
COCCCn1ccc2nc3ccn(CCN4CCOCC4)c(=O)c3cc2c1=O	4.7	5.8
CCC(C)NC(=O)C(NC(=O)c1ccccc1F)C1CCN(C(=O)C2CCCC2)CC1 (stereo not given)	-6.0	-4.8
COc1cc(OC)cc(-c2nnc(SCc3cc(F)cc(F)c3)n2-c2ccccc2C)c1	4.9	6.9
Cc1ccc(O)c(C(=O)N(C)CCOc2ccc(F)cc2)c1	-3.6	-3.5
c1ccc(-c2cnnc(NCCN3CCCC(c4ccccc4)C3)n2)cc1 (stereo not given)	-1.9	-3.8
CCN(CC)S(=O)(=O)c1cccc(N=Nc2ccc3ccccc3c2O)c1	-4.5	-7.6
Cc1cc(-c2csc(NC3CCCC3)n2)c(C)n1CC1CCCO1 (stereo not given)	40.1	29.5
Cc1nc2sccn2c1CNCCCN1CCC(C)CC1	1.0	0.4
Cc1cc(Cl)ccc1NC(=O)c1nc(C)n2c1CCCC2	-4.4	-3.5
CCOc1cc(C2=NN(c3ccc(C)cc3)C(=O)CC2)ccc1O	2.6&4.2	0.3&0.7
COC(=O)C(=O)N1CCN(c2nccc(-c3cccc(C(F)(F)F)c3)n2)CC1	5.6	1.7
CN(Cc1ccc(C(N)=O)cc1)Cc1ccccc1Br	7.1	0.1
CN1CCC2(CC1)CN(C(=O)CN1C(=O)NC(=O)C1(C)C)CCN2C	-6.0	-3.7

In the list so far, these contain a furan ring, fused or not:
SMILES	NPYLR7 ag	NPYLR7 ag max-min
O=C(NCCC1CCCO1)c1occc1-c1ccccc1 (stereo not given)	-1.6	-2.9
COc1ccc2[nH]c3c(c2c1)CCN(C(=O)c1cc(Cl)cc(Cl)c1)C3c1ccc(-c2ccccc2C(F)(F)F)o1 (stereo not given)	-4.7	-7.2
O=C(CCNC(=O)c1ccco1)Nc1cc(Cl)ccc1N1CCCCC1	-3.8&6.4	-5.7&15.0
CNC(=S)NC(=O)c1ccco1	4.3	4.6
O=C(Cc1cc(-c2cc3ccccc3o2)on1)Nc1cccnc1	2.4	5.3
CC(NC(=O)c1ccoc1)C(=O)Nc1cc(C(F)(F)F)ccc1O (stereo not given)	0.7	-0.2
CC(C)c1ccc(-n2nnnc2SCC(=O)NCc2ccco2)cc1	3.8	0.1
COC(=O)c1ccc(CSc2nnc(-c3cc(OC)cc(OC)c3)n2C2CCCCC2)o1	-0.7	0.6
CC(=O)c1c(C(C)=O)c(C)n(Cc2ccco2)c1C	6.6	3.3

Additional records follow.
SMILES	NPYLR7 ag	NPYLR7 ag max-min
CCC(C)NCc1cccc(OS(=O)(=O)c2ccc(NC(C)=O)cc2)c1 (stereo not given)	1.5	-4.5
Cc1cc(C(=O)N2CCC(Oc3ccc(C(=O)NCCc4ccccc4)cc3)CC2)no1	3.6	-6.5
COc1ccc(-c2noc(CN3CCCCC3c3nccn3C)n2)cc1 (stereo not given)	3.9	0.6
COc1cccc(F)c1C(C)Nc1nc2ccccc2c(=O)[nH]1 (stereo not given)	4.6	3.0
O=C(NCCN1CCOCC1)c1cnn2c(-c3ccccc3)cc(-c3ccccc3)nc12	-0.3	-0.2
N#Cc1cccc(CSc2nnc(NC(=O)COCc3ccccc3)s2)c1	-2.7	9.4
CCc1nc(-c2ccccc2N)n[nH]1	-9.2	-9.9
COc1ccccc1-n1cc(CN2CCC3(CC2)C(=O)N(C(C)C)C(=O)N3C)cn1	21.1	16.3
O=C(NCCC1=CCCN(CCCF)C1)c1c(F)cccc1F	1.8	1.0
Cc1ccccc1/C=C/C=C1/SC(N)=NC1=O	0.1	-6.2
COC(=O)CCCCC(=O)N1CCc2cc(OC)c(OC)cc2C1c1cccc(Cl)c1 (stereo not given)	8.6	1.0
Cc1ccc(C)c(S(=O)(=O)NC(C)C(=O)NCc2ccco2)c1 (stereo not given)	-1.7	2.6
O=C(Cn1c(=O)cnc2ccccc21)NOCc1ccccc1	6.6	3.6
Cc1sc2ncnc(NNC(=S)NCCN3CCOCC3)c2c1C	-6.6	-5.5
CCc1ncc2c(n1)CN(C(=O)Cc1c(C)nc3ccccn13)C2	2.3	3.0
CCc1cccc(-n2nnc(C(=O)N3CCC(N4CCCCC4)CC3)c2-c2cccnc2)c1	-2.8	-2.8
CC(C)n1cc(CN2CCCC2C(=O)Nc2ccc(-c3cscn3)cc2)cn1 (stereo not given)	-3.8	-6.2
CCCCN(CC(=O)N(Cc1cccn1C)CC(C)C)C(=O)c1cc(OC)cc(OC)c1	-3.1	-1.9
CCOC(=O)N1CCN(C2CCCN(C(=O)c3ccc(OC)c(O)c3)C2)CC1 (stereo not given)	4.8	3.0
CC1CCc2cc(F)ccc2N1S(=O)(=O)c1cc2c3c(c1)CCN3C(=O)CC2 (stereo not given)	4.9	0.2

Screens as filed in PubChem.

An excerpt. The share of hits here may be higher or lower than overall.
